Screens as filed in PubChem.
Sa RN4220 lethal – growth inhibition of S. aureus RN4220, primary screen, OD600 | 0.33% of 330,000 active | 16 h | inhibition, % (concentration not given with the values);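 active = z-score of -3 or lower and OD600 up to 0.18 on both plates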;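 note: plate controls were untreated cells for no effect and reference antibiotic for full effect; stock transfer was 100 nL into about 80 µL; one replicate is shown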
ugtP null kill – growth inhibition of ugtP-null S. aureus, primary screen, RN4220 ugtP deletion, OD600; 16 h; some inactives read as strong as hits; growth inhibition, % (concentration not given with the values); 0.54% of 330,000 active;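 active = z-score under -3 and OD600 up to 0.15 on both plates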;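 note: plate controls were untreated wells for no effect and antibiotic for full effect; wells of about 80 µL received 100 nL stock; the first replicate is given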
Autofluor counter – compound fluorescence in toxin protease inhibitor counterscreen. compound autofluorescence counterscreen, microsphere flow cytometry; hits give high values. fluorescence intensity (test concentration not listed). 3.1% of 360,000 active;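 active = at least 3 SD above the mean of all compounds, about 16000 in these data; inconclusive = too few beads counted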;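 note: 100 nL of 1 mM stock went into each well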
Mtb hypoxia rep – PubChem AID 1159583; M. tuberculosis hypoxia-regulated fluorescent reporter, fluorescence; fluorescence inhibition, % (no concentration beside the values); 0.1% of 300,000 active;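 active = 35 to 45% if threefold the growth effect, above 45% if 1.5-fold the growth effect; inactive = the rest, general growth blockers included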;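 note: wells of about 50 µL received 100 nL stock; 0% = vehicle wells and 100% = reference inhibitor wells; whole bacteria with a GFP reporter of the hypoxia response; strong numbers were not always called active; many hits fall short of the cut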
BJeLR lethal – MLPCN primary cell-based screen for lethality selective to Ras in HRASV12 cells; BJeLR (HRASV12) viability, CellTiter-Glo ATP luminescence, 48 h; reference of the scale not given here; inhibition, % (test concentration not listed); 0.17% of 300,000 active; AID 1554, 2009;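 active = replicate mean above 50%; inconclusive = above 50% but judged a plate artefact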;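 note: 50 nL library stock added to about 25 µL; numbers are from one replicate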
PrP UTR inh – inhibition of PrP 5' UTR reporter expression | cell-based PrP 5' UTR mRNA reporter, plate reader | 0.35% of 340,000 active | inhibition, % (no concentration beside the values);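 active = every replicate at 50% or more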;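 note: 0 = median of the neutral control wells; tested in H4 reporter cells; numbers are from one replicate; inactives centre near -14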
Mtb hypoxia rep growth – second read-out of Mtb hypoxia rep, no call of its own (marks repeat the call); growth inhibition, %; measured here: M. tuberculosis growth (absorbance);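 0% = vehicle and 100% = reference antibiotic; read after six days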
* hit, by the source's call; ? = inconclusive; . = no result given; & = joins results of further samples.

Each structure is followed by: Sa RN4220 lethal	ugtP null kill	Autofluor counter	Mtb hypoxia rep	Mtb hypoxia rep growth	BJeLR lethal	PrP UTR inh
COc1cc(C(=O)NN=Cc2ccc(OC(=O)N3CCOCC3)cc2)cc(OC)c1OC
 : 0.6	3	.	-7	0	.	.
Cc1nc2c(cnn2CCO)c(=O)[nH]1
 : -2.9	-4	3020	0	-2	.	-4
COCCNC(=O)C1CC(c2ccc(F)cc2)=NO1 (configuration not stated)
 : -0.9	-2	6948	2	-1	-25	-18
Cc1ccc(C)c(NC(=O)C2CC(=O)N(C(C)C)C2)c1 (configuration not stated)
 : 5.0	7	10026	2	7	5	-10
CCCOC(=O)Cc1c(O)c2ccccc2[nH]c1=O
 : 32	-11	4947	.	.	3	-26
O=C(NCC(=O)N(Cc1ccco1)C(C(=O)NC1CCCC1)c1ccncc1)c1cccs1 (configuration not stated)
 : 0.9	1	.	.	.	4	-25
O=C(CN1C(=O)NC2(CCCCCC2)C1=O)N1CCN(c2ccccc2)CC1
 : 3.2	3	8818	1	5	.	-19
COc1ccccc1-n1cnnc1SCC(=O)N1CCOCC1
 : 0.6	3	4546	1	-1	5	-22
O=[N+]([O-])c1ccc(N2CCN(C(=S)Nc3ccc(F)cc3F)CC2)cc1
 : 4.1	10	3303	7	7	2	-7
CCC(=O)Nc1cc(Cl)ccc1C(=O)O
 : 5.6	5	19235*	8	5	-1	-21
COc1ccc(OCC(=O)Nc2cc(C)c(Cl)cc2OC)c([N+](=O)[O-])c1
 : 7.8	12	2537	14	3	3	-88
CC(=O)Nc1cc[n+](C(C)C(=O)c2ccc(Cl)cc2)cc1 (configuration not stated)
 : 1.8	2	4193	-3	-2	2	-22
COc1cccc(-n2cnnn2)c1
 : 6.1	5	7320	3	3	-19	-17
CCn1c(SCC(=O)Nc2oc(C)c3c(C)n[nH]c(=O)c23)nc2sc(C)c(C)c2c1=O
 : -1.1	-2	6516	2	12	-7	-15
COc1c(C)cccc1C(=O)Nc1ccc(N2CCN(S(C)(=O)=O)CC2)cc1
 : 2.8	4	3290	14	14	6	-76
CCOc1ccccc1NC(=O)CSc1nnnn1Cc1ccccc1
 : 1.1	6	10916	4	7	-10	-1
O=C(CN1c2ccccc2Sc2ccccc21)N/N=C/c1ccccc1
 : .	.	5256	.	.	-2	-21
Cc1cc(C)cc(N(CCC#N)C(=O)CSC2=Nc3ccccc3C3CC=NN23)c1 (configuration not stated)
 : 1.7	11	4937	-1	9	0	6
O=C(COC(=O)c1ccc(Br)o1)Nc1ccc(N2CCOCC2)cc1
 : 3.1	2	4687	9	3	.	-6
COc1cccc(/C=N/NC(=O)c2nc(-c3ccccc3)cc(-c3ccccc3)n2)c1O
 : .	.	2053	.	.	-7	-21
COc1ccc(C(=O)NNC2=NCCCCC2)cc1
 : 7.7	16	4396	7	0	7	-1
O=C(NCCN1CCN(C(=O)c2ccc(Br)cc2)CC1)c1ccc(Br)cc1
 : -3.6	6	5386	9	7	-3	-16
C=C1CCN([C@@H](CC(C)C)C(=O)NCc2ccc(Cl)cc2)S(=O)(=O)c2ccccc21
 : .	.	3542	.	.	3	-16
CC(Sc1nc2c(c(=O)n(C)c(=O)n2C)n1Cc1cc2c(cc1Cl)OCO2)C(=O)O (configuration not stated)
 : 0.5	0	3952	-2	1	-8	-16
CCOc1ccc(OCc2cccc(C(=O)Nc3ccc(CN4CCCCC4)cc3)c2)cc1
 : -6.6	-5	2540	13	12	-5	20
CCOC(=O)CN1CC23C=CC(O2)C(C(=O)NCc2ccc(C)cc2)C3C1=O (configuration not stated)
 : 1.2	0	5304	-6	0	-5	-21
CCOc1ccc2[nH]c3c(NCCO)ncnc3c2c1
 : 2.1	12	3755	3	8	-3	-12
CN(C)C=Nc1ncc2c3ccccc3n(Cc3ccccc3)c2c1C#N
 : -0.9	4	2360	.	.	0	-15
O=C(NNC(=O)c1ccc2ccccc2n1)c1ccc(O)cc1
 : 1.8	-1	3951	8	5	.	-6
CSc1cccc(NC(=S)N2CCCN(Cc3ccc(F)cc3)C2)c1
 : -0.7	5	.	11	4	15	7
Cc1sc(NC(=O)c2ccccc2F)c(CN2CCCCC2C)c1C (configuration not stated)
 : 2.6	19	9835	4	10	-7	-10
COCCCn1c(Cc2csc(Nc3ccccc3)n2)nnc1SCC(N)=O
 : 2.2	0	9640	4	4	9	-10
COc1ccc(NC(C)=[N+](C)CCNS(=O)(=O)c2ccc(Cl)cc2)cc1
 : 2.0	3	5106	3	4	4	-9
COc1ccc(S(=O)(=O)N2CCCCCC2)cc1NC(=O)CN1C(=O)NC(C)(c2ccccc2)C1=O (configuration not stated)
 : 4.9	3	6265	0	11	4	-27
COc1ccc(NC(=O)CSc2nc3ccccc3n2-c2ccccc2)c([N+](=O)[O-])c1
 : 4.5	-16	2609	7	4	-8	-25
CCc1c(C)nc(SCC(=O)Nc2c(C)n(C)n(-c3ccccc3)c2=O)[nH]c1=O
 : 0.9	2	21804*	-5	3	2	-10
COc1ccc(S(=O)(=O)N2CCC3(CC2)OCCN3S(=O)(=O)c2cccs2)cc1
 : .	.	?	.	.	13	7
CN(CC(=O)N1CCc2ccccc21)S(=O)(=O)c1cccs1
 : 3.4	-8	4107	.	.	-8	-93
O=C(CCC(=O)NC1CCCCC1)Nc1cccnc1
 : 3.9	13	3379	3	5	-11	-6
O=C(NCCCN1CCCC1=O)c1cccc(C(F)(F)F)c1
 : 1.6	10	20148*	-2	-6	0	-15

Single entries from the entries so far.
PrP UTR inh with O=C(NNC(=O)c1ccc2ccccc2n1)c1ccc(O)cc1 is entered as -6
Mtb hypoxia rep growth with Cc1sc(NC(=O)c2ccccc2F)c(CN2CCCCC2C)c1C (configuration not stated) is entered as 10

(continued)
Each structure is followed by: Sa RN4220 lethal	ugtP null kill	Autofluor counter	Mtb hypoxia rep	Mtb hypoxia rep growth	BJeLR lethal	PrP UTR inh
COCC(=O)Nc1c(C(=O)Nc2ccc3c(c2)OCO3)oc2ccccc12
 : -0.9	-4	5820	-4	-7	-7	-73
Cc1ccc(CN2CCN(C(=O)c3ccco3)CC2)cc1
 : 7.2	8	2542	10	7	-10	-12
COc1cccc(NC(=O)COC(=O)C2C3CC4OC(=O)C2C4C3)c1 (configuration not stated)
 : 2.1	-6	3409	9	2	-5	-17
Cc1noc(C)c1NC(=O)N(C)C[C@H]1Oc2ccc(NC(=O)Cn3cnnn3)cc2C(=O)N([C@H](C)CO)C[C@@H]1C
 : 4.3	7	3665	4	6	.	-15
COc1ccc(-c2nnc(NC(=O)C3CC3)o2)cc1
 : -2.2	4	2098	20	13	8	-16
Cc1nc2nc[nH]n2c(=O)c1NS(=O)(=O)c1ccc(C(C)(C)C)cc1
 : 3.5	3	3675	-7	0	-3	-27
CSc1nc2ccc(S(=O)(=O)N3CCCC3)cc2s1
 : 0.2	-5	10287	6	14	-3	-28
Cc1ccc2c(c1)N(Cc1ccccn1)C(=O)C(C)O2 (configuration not stated)
 : 0.3	3	24586*	-1	1	12	-3
CCC(C)n1cnc2c(c1=O)c1nc3ccccc3nc1n2Cc1ccccc1OC (configuration not stated)
 : 16	-5	3314	4	1	-8	-19
Cc1ccc(NC(=O)CSc2nnc3ccc(-c4ccncc4)nn23)cc1
 : -1.0	1	?	-2	-2	0	-7
CC(C)n1cc(/C=N/Nc2ccc(C(=O)O)cc2)c2ccccc21
 : .	.	4026	.	.	-5	27
COc1ccc(C(=O)COC(=O)c2ccccn2)cc1OC
 : 1.1	3	2886	8	-5	.	-13
COc1ccc(-c2nnn(-c3ccc(Cl)cc3Cl)c2N)cc1
 : 3.9	-1	4407	-3	7	10	-20
CC(Sc1nc(-c2ccccc2)cc(C(F)(F)F)n1)C(=O)Nc1sc2c(c1C(N)=O)CCC2 (configuration not stated)
 : -2.4	27	2493	12	-1	-5	-6
CCOC(=O)CSc1nnc(Cc2cc(=O)[nH]c(=O)[nH]2)n1-c1cccc(OC)c1
 : -2.3	-4	21403*	-3	11	0	10
CCn1c(SCC(=O)NCc2cccs2)nnc1-c1cccs1
 : 6.2	8	23563*	8	9	-7	-3
CCOC(=O)CSc1nc(C(C)(C)C)cc(C(F)(F)F)c1C#N
 : 0.8	-8	4849	1	4	5	-12
C/C(=N\N1CCN(c2ccccc2)CC1)c1ccncc1
 : .	.	4540	.	.	-5	-14
COc1cccc(NC(=O)CN(C)C(=O)CSc2ccc3c(c2)OCCO3)c1
 : -0.6	-2	2950	6	2	.	-37
O=C(/C=C/c1ccc(Cl)cc1)N(c1ccccn1)C1CCCCC1
 : 2.9	6	2311	14	8	-3	-1
Cc1nc2c(-c3ccc(F)cc3)c(C)nn2c(C)c1CCC(=O)NC(C)CCc1ccco1 (configuration not stated)
 : -1.7	5	5937	6	8	5	-19
CC(C)=CCN1CCNC(=O)C1CC(=O)NCc1nc(C)c(C)s1 (configuration not stated)
 : 4.3	7	4454	6	14	-4	-6
CCCN1C(=O)c2cc(C(=O)NC3CCCCCC3)ccc2C1O (configuration not stated)
 : -1.6	4	4219	.	.	-3	-42
COc1ccc(Nc2c3ccccc3nc3ccccc23)cc1
 : 0.6	7	3778	-6	-8	36	-18
Cc1c(C(=O)Nc2ccccc2)sc2ncn(CC(=O)N3CCCCC3)c(=O)c12
 : 3.5	1	3512	-1	4	-3	-4
CCOC(=O)c1c(NC(=S)Nc2ccc(C)cc2)sc2c1CCC2
 : 7.3	-6	2473	9	0	0	8
COc1ccc(Br)cc1/C=C/C(=O)NCC(=O)O
 : -2.9	6	4330	2	2	10	-9
O=C(/C=C/c1ccco1)NC(=S)Nc1ccc(C(=O)O)cc1
 : 2.6	11	3617	12	3	-2	14
CC1(C)Cc2c(sc3nc(-c4cccs4)n(N)c(=O)c23)CO1
 : 6.9	4	21380*	3	4	2	-120
CN(C)c1ccc(NC(=O)CSc2nnc(-c3cccs3)n2Cc2ccco2)cc1
 : -0.5	10	22600*	2	8	-7	-9
O=C(Cc1ccccc1)NNC(=O)C1CCN(c2ncccn2)CC1
 : 1.0	9	4083	9	8	0	47
Cc1cccc(N(C)S(=O)(=O)c2ccc3c(c2)NC(=O)CC(=O)N3)c1
 : 7.3	4	4510	8	6	4	-27
O=C(CSc1ncnc2c1nnn2Cc1ccccc1F)NCC1CCCO1 (configuration not stated)
 : 0.3	9	5884	16	2	-9	-6
CCCNS(=O)(=O)c1cc2c(cc1Br)CCN2C(=O)CC
 : 2.6	4	3984	-2	13	.	-57
O=C(NN=Cc1ccco1)c1cc2ccccc2o1
 : 2.7	-7	.	10	3	.	.
CCn1nc(C)c(C2C(C#N)=C(N)Oc3n[nH]c(C)c32)c1C (configuration not stated)
 : 7.6	11	3568	0	7	-1	-10
O=c1c2ccccc2ncn1N=Cc1ccccc1
 : 2.5	3	.	3	-6	.	.
Cc1ccc(CNC(=O)c2cccc(-n3cnnn3)c2)cc1
 : -0.6	-3	23751*	0	1	-3	-26
CCOCc1c(C(=O)Nc2ccc3nc(N4CCOCC4)sc3c2)oc2ccccc12
 : 10	4	3002	21	8	.	-20
C[n+]1c(-c2ccccc2)c2cc(N)ccc2c2ccc(N)cc21
 : 37	98*	2539	.	.	44	9
O=C(N/N=C/c1cccc(OC2CSC2)c1)c1ccccc1O
 : .	.	2122	.	.	-1	-18
Cc1ccc(NC(=O)c2cccc(S(=O)(=O)N3CCCc4ccccc43)c2)nc1
 : 12	-14	3917	17	13	.	-22
O=C(COC(=O)Cc1ccc(Br)cc1)NC1CCCC1
 : 1.1	-5	3667	-41	3	.	0
CCOC(=O)/C(=N\NC(=O)c1ccccc1)c1ccccc1
 : .	.	7801	.	.	13	-5
N#Cc1ccc(CSc2nc(N)cc(=O)[nH]2)cc1
 : 3.0	16	4158	4	-5	-4	-40
CN(C)CC(C)(C)CNS(=O)(=O)c1ccc(Cl)c(Cl)c1
 : 0.3&-0.3	-1&3	4513&9034	16&3	6&-11	2&0	-19&-11
CC12CC(O)C3c4ccc(O)cc4CCC3C1CCC2=O (configuration not stated)
 : 4.5	7	4735	-1	1	1	-21
Cc1cc(C(=O)NC(CC(C)C)C(=O)O)cc(C)c1[N+](=O)[O-] (configuration not stated)
 : 7.0	8	8693	5	-2	3	-4
O=C1c2ccccc2NC(c2ccc([N+](=O)[O-])cc2)N1O (configuration not stated)
 : 7.9	3	2119	2	-3	1	-14
